Six1-Eya2 blk: inhibitors of human Six1/Eya2 interaction; Q15475+O00167; AlphaScreen GST-Six1/His-Eya2 binding, biochemical; hits give low values; control for the full effect not named in the record; activity change, % (test concentration not listed); actives 0.56% (n = 360,000); in the data active = activity change below about -65%; inconclusive = about -30% to -65%; inactive = above about -30%; note: % is set by controls: 0 for no effect and ±100 for the full control effect; compound concentration not given in the record
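AlphaScreen luminescence read after one hour at 37 °C in darkness. Pin-transferred compounds met GST-Six1 and His-Eya2 protein (5X stock 250 nM/500 nM) plus glutathione donor and Ni-chelate acceptor beads (5X, 50 ug/mL).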
D2 ag: human D2 receptor agonism in beta-arrestin assay; activation, % (test concentration not listed); P14416; DiscoveRx PathHunter D2 beta-arrestin, luminescence, 90 min; 100% = 57 uM dopamine signal; actives 0.084% (n = 360,000); in the data active = activation above about 40%; inconclusive = about 15% to 40%; inactive = below about 15%; note: compound concentration not given in the record; the text of the record calls up to 30% inactive
Target sequence (P14416 whole entry, looked up): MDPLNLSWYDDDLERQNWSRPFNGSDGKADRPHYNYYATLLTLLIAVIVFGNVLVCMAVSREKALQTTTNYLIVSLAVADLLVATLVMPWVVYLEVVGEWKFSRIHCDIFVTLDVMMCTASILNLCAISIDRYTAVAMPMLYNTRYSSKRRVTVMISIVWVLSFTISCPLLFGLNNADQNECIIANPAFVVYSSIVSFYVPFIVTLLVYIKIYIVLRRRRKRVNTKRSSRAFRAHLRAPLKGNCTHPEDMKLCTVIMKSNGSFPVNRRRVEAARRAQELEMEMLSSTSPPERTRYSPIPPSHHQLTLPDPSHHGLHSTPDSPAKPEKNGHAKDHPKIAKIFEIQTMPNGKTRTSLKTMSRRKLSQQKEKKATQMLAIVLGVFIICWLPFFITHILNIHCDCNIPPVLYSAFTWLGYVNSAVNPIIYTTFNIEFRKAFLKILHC
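Agonist mode: compounds alone added to overnight-plated D2 PathHunter cells for 90 min at 37 C, with 57 uM final dopamine (EC100) defining full response. Beta-arrestin recruitment detected by chemiluminescent reagent, read after 1 h at ambient temperature.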
TRPML1 blocker: human mucolipin-1 channel inhibition | TRPML1-inducible cells, Ca2+ dye fluorescence, FDSS; hits give low values; inhibition of EC80 agonist-evoked calcium signal | actives 0.02% (n = 390,000) | activity change, negative = inhibition, % (test concentration not listed); in the data active means activity change below about -50%; inconclusive means about -30% to -50%; inactive means above about -30%;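 note: stimulus is agonist 54-4 at its EC80 concentration; % is set by controls: 0 for no effect and ±100 for the full control effect; compound concentration not given in the record; the text of the record puts the active cut at -80%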
Target sequence (Q9GZU1 whole entry, looked up): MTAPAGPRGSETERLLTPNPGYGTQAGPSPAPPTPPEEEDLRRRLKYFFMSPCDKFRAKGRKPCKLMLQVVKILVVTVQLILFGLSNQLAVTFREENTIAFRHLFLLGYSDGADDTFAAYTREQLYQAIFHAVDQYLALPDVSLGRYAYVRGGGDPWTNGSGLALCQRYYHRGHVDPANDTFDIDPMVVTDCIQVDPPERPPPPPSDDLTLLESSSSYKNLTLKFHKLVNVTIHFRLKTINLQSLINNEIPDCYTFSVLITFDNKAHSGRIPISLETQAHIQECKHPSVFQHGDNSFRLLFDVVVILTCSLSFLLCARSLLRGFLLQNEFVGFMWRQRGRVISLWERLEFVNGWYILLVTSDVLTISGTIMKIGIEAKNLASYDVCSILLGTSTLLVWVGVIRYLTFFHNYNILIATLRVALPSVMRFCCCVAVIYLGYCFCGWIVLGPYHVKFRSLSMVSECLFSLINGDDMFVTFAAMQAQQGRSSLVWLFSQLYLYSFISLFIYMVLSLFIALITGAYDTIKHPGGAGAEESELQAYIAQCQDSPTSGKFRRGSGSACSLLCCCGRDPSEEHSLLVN
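TRPML1-DL cells, Tet-induced overnight (~16 h, 37 °C) at 1,500 cells/well, were loaded with Ca8 no-wash dye plus quencher for 45-90 min at room temperature. Compounds were pinned during FDSS kinetic reading; agonist 54-4 at EC80 (4 uM final) then added.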
PINK1 expr mod: PINK1 expression modulation | actives 0.2% (n = 410,000) | Potency, µM (doses to about 76.6 µM), inactives show at the highest dose activation (PINK1 increase), actives largely listed as activators | AID 624263 | PINK1 immunofluorescence, high-content cytometry, 24 h; active = well fitted activation curve with a large enough effect; inconclusive = small, poorly fitted or top-dose-only effect; inactive = flat fitted curve, though single readings scatter; cell line not stated here;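 note: potency is the fitted concentration of half-maximal effect; % of control where 0% means no effect; nearly all actives have a fitted effect of over 65% in size; a mitochondrial uncoupler was the plate control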
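Fluorescence from anti-PINK1 antibody, together with nuclear and cell stains, was scanned on a laser-scanning cytometer. Before staining, stable-line cells were incubated 24 hours with compounds at 5 concentrations; primary antibody 12 h at 10 degrees C.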
D2 PAM: potentiates the human D2 dopamine receptor allosterically | actives 0.23% (n = 360,000) | potentiation, % (concentration not given with the values) | DiscoveRx D2 beta-arrestin cells, luminescence, 90 min; 100% = 57 uM dopamine signal; active = potentiation of 50% or more; inconclusive = 30% to 50%; inactive = 30% or less;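 note: compound concentration not given in the record; tested on top of an EC20 dose of dopamine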
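PathHunter beta-arrestin assay in DiscoveRx D2 cells. Compounds were added with an EC20 of dopamine (50 nM final) for 90 min at 37 deg C. Luminescence was read 1 h after detection reagent, with 57 uM dopamine as the EC100 control.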
TRPML1 ag: agonists of human TRPML1 channel. Q9GZU1. TRPML1-expressing cells, Ca2+ dye fluorescence, FDSS; host cell line not named in the record; reference of the full effect not given here. activation, % (concentration not given with the values). actives 0.12% (n = 410,000). AID 624414; in the data active = activation above about 50%; inconclusive = about 30% to 50%; inactive = below about 30%; note: 0% is about no effect; the text of the record puts the active cut at 80%
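Calcium fluorescence on an FDSS kinetic reader gave the read-out. Tet-induced TRPML1-DL cells were plated overnight, dye-loaded (Ca8 with quencher, 45-90 min, room temperature, dark), then read 110 s after compound addition, and again 110 s after 4uM final 54-4 (EC80).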
The depositor's hits bear a star; & = joins results of further samples; [ ] = dose if it differs, or a comment.

Results for O=C(CNC(=O)C1CC(=O)N(c2cccc3ccccc23)C1)Nc1ccccc1Br (stereo unspecified) ?
Six1-Eya2 blk: 23; D2 ag: -2.7; TRPML1 blocker: -19; PINK1 expr mod: 1.8%; D2 PAM: 1; TRPML1 ag: 1.2

How did N#Cc1cccn1-c1nccc(-c2cccs2)n1 do in these assays?
Six1-Eya2 blk: 6; D2 ag: -2.5; TRPML1 blocker: 0; PINK1 expr mod: 3.0%; D2 PAM: 7; TRPML1 ag: -0.7

What do the screens show for `O=C(O)Cc1ccc(S(=O)(=O)N2CCCC2)s1`?
Six1-Eya2 blk: -5; D2 ag: -4.6; TRPML1 blocker: -3; PINK1 expr mod: -2.5%; D2 PAM: -12; TRPML1 ag: -0.1

How did CCOc1ccc(NC(=O)C(=O)NCCN2CCN(S(=O)(=O)c3ccccc3)CC2)cc1 do in these assays?
Six1-Eya2 blk: 5; D2 ag: 3.3; TRPML1 blocker: 8; PINK1 expr mod: 1.1%; D2 PAM: -2; TRPML1 ag: -1.3

Results for C=CCC(CC=C)(NC(=O)c1ccccc1C(=O)O)c1ccccc1 ?
Six1-Eya2 blk: -2; D2 ag: 0.4; TRPML1 blocker: 8; PINK1 expr mod: -1.4%; D2 PAM: -1; TRPML1 ag: -0.7

How did O=C(CSc1nnnn1-c1ccc(O)cc1)NC1CCCCC1 do in these assays?
Six1-Eya2 blk: 7; D2 ag: 5.4; TRPML1 blocker: 11; PINK1 expr mod: -1.1%; D2 PAM: -3; TRPML1 ag: -0.6

How did CCOc1ccc(S(=O)(=O)N(CC(=O)N2CCC(C(N)=O)CC2)c2ccc(F)cc2)cc1 do in these assays?
Six1-Eya2 blk: -1; D2 ag: -2.2; TRPML1 blocker: 8; PINK1 expr mod: 0.8%; D2 PAM: -29; TRPML1 ag: -0.1

Results for COc1cc(NC(=O)Cn2c(=O)nc(-c3ccccc3F)c3cc(Cl)ccc32)cc(OC)c1 ?
TRPML1 blocker: 17; PINK1 expr mod: -1.2%; TRPML1 ag: 4.0

How did O=C(CSC(=S)N1CCCC1)N1CCN(S(=O)(=O)c2ccccc2F)CC1 do in these assays?
Six1-Eya2 blk: 0; D2 ag: 0.5; TRPML1 blocker: 18; PINK1 expr mod: 0.1%; D2 PAM: -2; TRPML1 ag: -0.1

What do the screens show for `O=C(CN1CCN(Cc2ccc3c(c2)OCO3)CC1)Nc1ccc2c(c1)OCO2`?
Six1-Eya2 blk: -3; D2 ag: -2.7; TRPML1 blocker: -4; PINK1 expr mod: 0.3%; D2 PAM: -29; TRPML1 ag: 0.4

What do the screens show for `CCc1nnc(NC(=O)CC(=O)Nc2ccccc2C(=O)O)s1`?
Six1-Eya2 blk: -1; D2 ag: -2.4; TRPML1 blocker: 18; PINK1 expr mod: 7.7%[38.3 µM]; D2 PAM: -12; TRPML1 ag: 1.9

Results for C=CCOC(=O)CCC(=O)Nc1cc(OC)nc(OC)n1 ?
Six1-Eya2 blk: -2; D2 ag: -1.4; TRPML1 blocker: 12; PINK1 expr mod: -0.5%[38.3 µM]; D2 PAM: -8; TRPML1 ag: -0.3

How did Cc1ccc(/C=C(\C#N)C(=O)NCc2ccco2)o1 do in these assays?
Six1-Eya2 blk: 4; D2 ag: -4.0; TRPML1 blocker: -6; PINK1 expr mod: 1.3%; D2 PAM: -9; TRPML1 ag: -0.3

How did COC(=O)c1ccc(NC(=S)N2CCN(Cc3ccccc3)CC2)cc1 do in these assays?
Six1-Eya2 blk: -4; D2 ag: -0.8; TRPML1 blocker: -1; PINK1 expr mod: 0.5%; D2 PAM: -7; TRPML1 ag: -0.3

How did Cc1ccc(C(C(=O)NCc2ccccc2)N(Cc2ccco2)C(=O)c2snc(C(N)=O)c2N)o1 (stereo unspecified) do in these assays?
Six1-Eya2 blk: -4; D2 ag: -2.7; TRPML1 blocker: 19; PINK1 expr mod: -3.7%; D2 PAM: 12; TRPML1 ag: 2.3

What do the screens show for `COc1ccc(SC[C@H](Cc2ccccc2)N2CC[C@@H](C)CCC2=O)cc1`?
Six1-Eya2 blk: -2; D2 ag: -1.8; TRPML1 blocker: 69; PINK1 expr mod: inconclusive; D2 PAM: -13; TRPML1 ag: 1.0&-0.6

How did COc1ccc(OC)c(CCNC(=O)c2cnn(-c3ccccc3Cl)c2C2CCN(C(=O)OC(C)(C)C)CC2)c1 do in these assays?
TRPML1 blocker: 16; PINK1 expr mod: -0.1%; TRPML1 ag: 0.6

How did O=C(CCOc1ccccc1)Nc1ccnn1C1CCN(CCc2ccccc2)CC1 do in these assays?
Six1-Eya2 blk: -1; D2 ag: -3.3; TRPML1 blocker: -6; PINK1 expr mod: 0.8%; D2 PAM: -32; TRPML1 ag: -0.2

How did CCCS(=O)(=O)N1CCN(C(=O)c2cccnc2)CC1 do in these assays?
Six1-Eya2 blk: -1; D2 ag: -2.3; TRPML1 blocker: 22; PINK1 expr mod: 0.0%; D2 PAM: -12; TRPML1 ag: -0.8

Results for O=C(CCN1C(=O)/C(=C/c2ccc(F)cc2)SC1=S)NNC(=O)c1cccnc1 ?
Six1-Eya2 blk: 0; D2 ag: -3.6; TRPML1 blocker: 40; PINK1 expr mod: 1.5%; D2 PAM: 0; TRPML1 ag: 0.3

Taken from the entries so far, 2 compounds:
Results for O=C(CNC(=O)C1CC(=O)N(c2cccc3ccccc23)C1)Nc1ccccc1Br (stereo unspecified) ?
Six1-Eya2 blk: 23; D2 ag: -2.7; TRPML1 blocker: -19; PINK1 expr mod: 1.8%; D2 PAM: 1; TRPML1 ag: 1.2

How did N#Cc1cccn1-c1nccc(-c2cccs2)n1 do in these assays?
Six1-Eya2 blk: 6; D2 ag: -2.5; TRPML1 blocker: 0; PINK1 expr mod: 3.0%; D2 PAM: 7; TRPML1 ag: -0.7

The list goes on.
Results for O=C(Cc1ncn[nH]1)NCCc1ccccc1 ?
Six1-Eya2 blk: 9; D2 ag: -2.3; TRPML1 blocker: 2; PINK1 expr mod: -4.4%; D2 PAM: -4; TRPML1 ag: 1.6

What do the screens show for `CCN(CC)S(=O)(=O)c1cc(Br)c(C)cc1OC`?
Six1-Eya2 blk: 6; D2 ag: 3.8; TRPML1 blocker: -1; PINK1 expr mod: -0.1%; D2 PAM: -11; TRPML1 ag: 1.4

What do the screens show for `O=C1c2sc3nc4ccccc4n3c2C(=O)N1c1ccccc1Cl`?
Six1-Eya2 blk: -3; D2 ag: 0.2; TRPML1 blocker: 12; PINK1 expr mod: 1.9%; D2 PAM: -11; TRPML1 ag: 0.9

How did O=C(Cc1ccc2c(c1)CCCC2)Nc1ccccc1Cl do in these assays?
Six1-Eya2 blk: 16; D2 ag: 4.2; TRPML1 blocker: -5; D2 PAM: 1; TRPML1 ag: -0.1

Results for COc1ccc(-c2ccc(C(C)=O)cc2)cc1[C@H]1[C@@H]2C=CCC[C@@]2(C)C(=O)N1Cc1ccccc1 ?
Six1-Eya2 blk: -6; D2 ag: -2.9; TRPML1 blocker: -5; PINK1 expr mod: 18%; D2 PAM: -12; TRPML1 ag: 0.8

How did OCCN1CCN(C(=S)Nc2ccc(SC(F)F)cc2)CC1 do in these assays?
Six1-Eya2 blk: 5; D2 ag: 0.9; TRPML1 blocker: 7; PINK1 expr mod: 2.9%; D2 PAM: -7; TRPML1 ag: -0.4

What do the screens show for `Cc1nc(C)c(-c2ccc(SCC(=O)Nc3cccc(C)c3C)nn2)s1`?
TRPML1 blocker: -29; PINK1 expr mod: -0.7%; TRPML1 ag: 2.4

How did Cc1cc2ncn(C3CC(O)C(CO)O3)c2cc1C (stereo unspecified) do in these assays?
Six1-Eya2 blk: 2; D2 ag: -0.8; TRPML1 blocker: -2; PINK1 expr mod: -0.5%; D2 PAM: -1; TRPML1 ag: -0.2

What do the screens show for `C=CCc1cccc(OC)c1OCCOCCNCCO`?
Six1-Eya2 blk: -3; D2 ag: -2.4; TRPML1 blocker: 36; PINK1 expr mod: -1.1%; D2 PAM: -35; TRPML1 ag: -0.6

How did CCOC(=O)N1CCc2c(sc3c2c(=O)n(-c2ccc(CC)cc2)c(=O)n3CC(=O)NCC2CCCO2)C1 (stereo unspecified) do in these assays?
Six1-Eya2 blk: 13; D2 ag: -1.3; TRPML1 blocker: -4; PINK1 expr mod: -1.4%; D2 PAM: -6; TRPML1 ag: 0.0

Results for Cc1cc(=O)oc2cc(OC(C)C(=O)NC3CCCC3)ccc12 (stereo unspecified) ?
Six1-Eya2 blk: -6; D2 ag: 5.0; TRPML1 blocker: 18; PINK1 expr mod: 0.1%; D2 PAM: -5; TRPML1 ag: -0.1

What do the screens show for `COc1cccc(-c2nc(Cn3c(=O)cc(C)c4c(C)nn(-c5ccccc5)c43)c(C)o2)c1OC`?
TRPML1 blocker: 20; PINK1 expr mod: 2.0%; TRPML1 ag: 1.2

What do the screens show for `COc1ccccc1C(=O)OCc1cc(=O)n2nc(C3CC3)sc2n1`?
TRPML1 blocker: 4; PINK1 expr mod: 1.1%; TRPML1 ag: -0.4

Results for Cc1cc2cc3c(cc2nc1SCC(=O)Nc1ccccc1)CCC3 ?
Six1-Eya2 blk: 8; D2 ag: 2.5; TRPML1 blocker: -14; D2 PAM: 6; TRPML1 ag: 1.0

How did CCN(CC)S(=O)(=O)c1ccc2c(c1)c(=O)c(C(=O)N1CCN(c3ccccc3)CC1)cn2C do in these assays?
Six1-Eya2 blk: -9; D2 ag: 0.2; TRPML1 blocker: 5; PINK1 expr mod: 17%[38.3 µM]; D2 PAM: -1; TRPML1 ag: -0.4

Results for COC(=O)Cn1c(=O)c2cccn2c2cccnc21 ?
TRPML1 blocker: 4; PINK1 expr mod: 0.2%; TRPML1 ag: 1.5

What do the screens show for `CC1(C(=O)NS(=O)(=O)Cc2cccc(Cl)c2)CCN1C(=O)C1(c2ccc(Cl)cc2)CC1` (stereo unspecified)?
Six1-Eya2 blk: -12; D2 ag: -4.4; PINK1 expr mod: -0.5%; D2 PAM: -3; TRPML1 ag: -0.5

Results for CCC(CC)NC(=O)Nc1cccc(C)c1C ?
Six1-Eya2 blk: -9; D2 ag: -0.5; TRPML1 blocker: -8; PINK1 expr mod: 0.7%; D2 PAM: -21; TRPML1 ag: 0.3

Results for CN(C(=O)CN1C(=O)S/C(=C\c2ccccc2Cl)C1=O)C1CCS(=O)(=O)C1 (stereo unspecified) ?
Six1-Eya2 blk: -1; D2 ag: -3.2; TRPML1 blocker: -1; PINK1 expr mod: -1.1%; D2 PAM: -2; TRPML1 ag: -0.6

Results for CCOC(=O)CC1COCCN1Cc1cn[nH]c1-c1cc(OC)c(OC)c(OC)c1 (stereo unspecified) ?
Six1-Eya2 blk: 0; D2 ag: -0.4; TRPML1 blocker: -8; PINK1 expr mod: -0.8%; D2 PAM: -13; TRPML1 ag: 0.8

What do the screens show for `CCN(CC)S(=O)(=O)c1ccc2[nH]c(=O)cc(C(=O)Nc3ccccc3N3CCOCC3)c2c1`?
Six1-Eya2 blk: 0; D2 ag: 0.4; TRPML1 blocker: 17; PINK1 expr mod: -0.3%; D2 PAM: -5; TRPML1 ag: 0.6

Compound activity: PubChem, National Center for Advancing Translational Sciences (NCATS)
